Bioassay records deposited in PubChem by National Center for Advancing Translational Sciences (NCATS).
TRPV1 PAM: enhances activation of the human vanilloid receptor TRPV1; TRPV1-expressing cells, Fluo-8 calcium influx, capsaicin EC20 potentiation; host cell line not named in the record; control for the full effect not named in the record; potentiation, % at 8.33 µM; 320,000 tested, 0.02% active; AID 540277; active means potentiation above 80%; inconclusive means 30% to 80%; inactive means below 30%; also: 0% is about no effect
Target sequence (Q8NER1 whole entry, looked up): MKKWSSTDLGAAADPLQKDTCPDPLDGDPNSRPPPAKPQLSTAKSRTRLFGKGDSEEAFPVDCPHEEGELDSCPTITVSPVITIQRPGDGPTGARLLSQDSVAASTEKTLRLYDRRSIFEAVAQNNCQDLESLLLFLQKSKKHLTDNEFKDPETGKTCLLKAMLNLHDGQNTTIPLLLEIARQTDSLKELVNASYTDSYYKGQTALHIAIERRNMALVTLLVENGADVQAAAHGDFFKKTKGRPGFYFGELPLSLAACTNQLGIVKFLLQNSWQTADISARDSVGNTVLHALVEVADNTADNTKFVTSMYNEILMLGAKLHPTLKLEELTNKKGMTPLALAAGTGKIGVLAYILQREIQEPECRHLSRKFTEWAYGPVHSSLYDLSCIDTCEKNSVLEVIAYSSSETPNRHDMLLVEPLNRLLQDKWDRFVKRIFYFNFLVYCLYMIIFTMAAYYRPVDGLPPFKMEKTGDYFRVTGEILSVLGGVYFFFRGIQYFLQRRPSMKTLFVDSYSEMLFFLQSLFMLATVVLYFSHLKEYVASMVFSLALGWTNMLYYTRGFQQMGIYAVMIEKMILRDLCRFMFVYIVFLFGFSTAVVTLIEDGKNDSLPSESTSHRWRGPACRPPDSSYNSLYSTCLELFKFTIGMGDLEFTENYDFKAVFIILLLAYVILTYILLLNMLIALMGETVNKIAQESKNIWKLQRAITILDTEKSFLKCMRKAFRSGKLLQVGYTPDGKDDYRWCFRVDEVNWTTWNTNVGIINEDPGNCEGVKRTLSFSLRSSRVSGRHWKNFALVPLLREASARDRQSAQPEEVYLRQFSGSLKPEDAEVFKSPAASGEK
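Cells expressing TRPV1 were dye-loaded with Fluo-8 and read kinetically: 10 s baseline, 3 min after compound (agonist portion), then 2 min after EC20 capsaicin (allosteric enhancer portion). Calcium-bound dye fluorescence at 480/520 nm.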
Sfp inh: inhibitors of Bacillus subtilis Sfp phosphopantetheinyl transferase | Biochemical Sfp PPTase activity, qHTS | 310,000 tested, 3.5% active | AID 1490 | Potency, µM, for the others: max response, negative = inhibition, actives largely listed as inhibitors; active = well fitted inhibition curve with a large enough effect; inconclusive = small, poorly fitted or top-dose-only effect, or another doubt; inactive = no such curve, though single readings can be large or run the other way;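 also: the enzyme is Sfp with the accession as filed and its product quenches rhodamine fluorescence; potency is read from the fitted curve at half-maximal effect; 0% = enzyme reaction without inhibitor and -100% = no enzyme wells; top concentration of the series not given in the record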
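Buffer: 50 mM Hepes-Na pH 7.6, 10 mM MgCl2, 0.01% Nonidet P-40, 0.01% BSA. Enzyme 15 nM, pre-exposed to compound 15 min; substrates then added and fluorescence change tracked over 30 min.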
Menin-MLL FL inh: displaces fluorescein MLL peptide from human menin; Fluorescence polarization, fluorescein-MLL peptide displacement from menin; FP activity change, % at 61.4 µM; 290,000 tested, under 10 active; AID 1766; inconclusive = falling polarisation curve, or a change in total fluorescence; inactive = total fluorescence flat and polarisation flat or rising; no compound was filed as active; the % refers to the polarisation; negative = inhibition;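 also: % of control where 0% means no effect; inhibitors lower the polarisation; unlabelled MLL peptide was the positive control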
gsp agonist: activates gsp, the McCune-Albright syndrome mutation. 340,000 tested, 0.13% active. Potency, µM (doses to about 76.9 µM), for the others: at the top dose activation (cAMP increase), usual class: activators. gsp mutant cells, cAMP HTRF, 30 min; control for the full effect not named in the record; active = well fitted activation curve with a large enough effect; inconclusive = small, poorly fitted or top-dose-only effect, or another doubt; inactive = no such curve, though single readings can be large or run the other way; cell line not stated here;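 also: phosphodiesterase inhibitor Ro 20-1724 added with compounds to block cAMP breakdown; potency is read from the fitted curve at half-maximal effect; nearly all actives have a fitted effect of over 60% in size; about a fifth of the inactives were tested at one dose only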
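Cells in DMEM/10% FBS with G418 were pretreated with compounds in DMSO plus […] (300 uM stock) for 30 min at 37C. cAMP was measured by HTRF (cAMP-d2 plus anti-cAMP antibody-K) after 30 min at room temperature.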
ClpP mod: qHTS Assay for Activators of ClpP; ATP-dependent Clp protease proteolytic subunit (Bacillus subtilis (strain 168)), P80244; purified B. subtilis ClpP, FRET peptide cleavage, 20 min; Potency, µM (titrated, usually from 57.5 µM), inactives show at the top dose activity change, negative = active; 340,000 tested, 1.9% active; active = well fitted falling curve with a large enough effect; inconclusive = small, poorly fitted or top-dose-only effect; inactive = no such curve, though single readings can be large or run the other way; also: potency is read from the fitted curve at half-maximal effect; the source files actives as falling curves though it sought activators and does not explain the sign; nearly all actives have a fitted effect of over 65% in size; many hits overshoot -100%
Target sequence (P80244 whole entry, looked up): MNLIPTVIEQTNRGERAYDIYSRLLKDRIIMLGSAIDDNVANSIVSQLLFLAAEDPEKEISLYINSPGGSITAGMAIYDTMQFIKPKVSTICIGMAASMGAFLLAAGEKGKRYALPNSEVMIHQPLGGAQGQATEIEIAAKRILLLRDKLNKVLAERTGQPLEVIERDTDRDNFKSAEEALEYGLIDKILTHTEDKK
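FRET quenching reversal measured ClpP activation: 10 microg/mL B. subtilis ClpP at pH 8 with the FRET-FV decapeptide, read at 430 nm after 320 nm excitation. The 20-min minus 0-min signal was scaled between DMSO/no-enzyme wells and ADEP (5.8 microM final).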
CtBP-E1A inh: inhibitors of CtBP/E1A interaction; 340,000 tested, 0.49% active; AlphaScreen GST-E1A/His-CtBP binding, 1536-well; active compounds read low; control for the full effect not named in the record; activity change, % (test concentration not listed); in the data active means activity change below about -65%; inconclusive means about -30% to -65%; inactive means above about -30%; also: % is scaled to controls: 0 for no effect and ±100 for the full control effect
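AlphaScreen with 125 nM GST-E1A and 125 nM His-CtBP (5X stocks) in Tris pH 8.0, 300 mM NaCl, BSA, Tween 20, TCEP. Compounds preincubated 2 h at 37 deg C, then glutathione donor/nickel acceptor beads added for 1 h at 37 deg C in dark.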
gsp antagonist: antagonists of gsp mutant (McCune-Albright syndrome); gsp-mutant cells, cAMP HTRF, 30 min; control for the full effect not named in the record; Potency, µM (titrated, usually from 76.9 µM), for inactives: top-dose activity change, negative = inhibition, usual class: inhibitors; 340,000 tested, 0.4% active; AID 624288; active = falling curve of any shape with a large fitted effect; inconclusive = falling curve, mostly with a smaller effect; inactive = flat or rising curve; cell line not stated here;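 also: intracellular cAMP measured with PDE inhibitor Ro 20-1724 present during compound exposure; potency is read from the fitted curve at half-maximal effect; % is scaled to controls: 0 for no effect and ±100 for the full control effect; nearly all actives have a fitted effect of over 65% in size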
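Measurement of cellular cAMP by homogeneous time-resolved fluorescence following a 30 min compound exposure at 37C. The PDE inhibitor […] was present throughout; the assay buffer was DPBS with 0.05% BSA and 0.005% Tween 20.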
* marks the source's active call; other numbers are inactive results; ? = inconclusive; . = no result given; & = joins results of further samples; [ ] = another dose, or the depositor's remark.

SMILES | TRPV1 PAM | Sfp inh | Menin-MLL FL inh | gsp agonist | ClpP mod | CtBP-E1A inh | gsp antagonist
COc1cc(NS(=O)(=O)c2ccc(NC(=S)NC(=O)c3sc4ccccc4c3Cl)cc2)nc(OC)n1 | 3 | 50µM* | -1.0 | ? | -1.5% | -29 | 0%
CC1CN(C(=O)CSc2nc(N)c(NC(=O)c3ccc(C(F)(F)F)cc3)c(=O)[nH]2)CC(C)O1 (stereo not drawn) | . | . | . | -23% | -3.1% | 9 | .
Cc1ccccc1-c1nc2sc(-c3ccccc3)cc2c(=O)o1 | 22 | ? | 2.5 | 11% | -1.2% | 8 | -22%
CCOc1ccc(Oc2ccc(-c3nnc(-c4ccccc4)o3)cc2[N+](=O)[O-])cc1 | 14 | 22% | -0.5 | -2% | -0.2% | -4 | 7%
Cc1c(Cl)cccc1Nc1nc(N)nc(CSc2ncccn2)n1 | -5 | 22% | -1.7 | -3% | 1.1% | 2 | 0%
CCOc1cc(/C=C(\C#N)c2[nH]nc(N)c2C#N)ccc1O | 12 | 1% | ? | -37%[inhibitor] | -2.4% | -81* | 5%
CCOC(=O)c1ccccc1N/C=C1\CCCC1=O | -9 | -14% | 7.2 | 3% | -11% | -5 | 8%
CN(C)c1nc(N)nc(Cn2ccnc2)n1 | -4 | -7% | -2.2 | ? | 0.4% | 6 | 12%
O=C(COC(=O)/C(=C/c1cccs1)c1cccs1)NC(c1ccccc1)c1ccccc1 | -1 | -2% | 8.7 | 5% | -0.5% | -19 | 0%
CC(NC(=O)COC(=O)c1ccc2ccccc2n1)c1ccccc1 (stereo not drawn) | . | . | . | 11%[15.4 µM] | -0.3% | 10 | -5%
Cc1cc(C)n(CC(C)C(=O)O)n1 (stereo not drawn) | 13 | 2% | -1.4 | -8%[15.4 µM] | . | -5 | 14%
Cc1ccc(O)c(NC(=S)NC(=O)CC(C)C)c1 | -8 | -8% | 2.7 | 7% | -2.7% | 8 | 2%
COc1ccccc1NC(=S)NC(=O)Cc1ccccc1 | . | . | . | 3%[15.4 µM] | . | 3 | 6%
O=[N+]([O-])c1ccc(N2CCN(c3cccc(Cl)c3)CC2)nc1 | -3 | 15% | -3.7 | 15% | -1.3% | -4 | 0%
COc1ccc(C(=O)N[C@H](C(=O)OCC(=O)NC(=O)c2cccn2C)C(C)C)cc1 | -6 | -1% | 4.9 | 4%[15.4 µM] | -2.9% | -3 | 5%
CC1(C)Cc2nc3oc4c(NCc5ccccc5)ncnc4c3cc2CO1 | 1 | 16% | -1.3 | 12% | 2.8µM* | 0 | -1%
CC1(C)CC(=O)C2=C(C1)NC(=O)NC2c1ccc(Cl)cc1 (stereo not drawn) | -1 | 10% | 1.8 | -1% | . | -3 | 0%
Cc1c(C(=O)N2CCCCC2)oc2ccc(Br)cc12 | 0 | . | . | 12%[15.4 µM] | -3.9% | 11 | 6%
CC(=O)Nc1ccc(-c2nnc(SCc3c(C)cc(C)cc3C)n2C)cc1 | 1 | -9% | -1.3 | -39%[inhibitor] | -1.2% | -1 | -10%
COc1ccc(N(Cc2ccccc2)C(=O)CSc2nnc(Cn3nnc4ccccc43)o2)cc1 | 1 | 0% | 2.1 | 25% | -2.1% | -9 | 28µM*

Whole records, quoted from the list. Order of screens: TRPV1 PAM	Sfp inh	Menin-MLL FL inh	gsp agonist	ClpP mod	CtBP-E1A inh	gsp antagonist
Profile of `Cc1c(C(=O)N2CCCCC2)oc2ccc(Br)cc12` : 0	.	.	12%[15.4 µM]	-3.9%	11	6%
Profile of `CCOc1cc(/C=C(\C#N)c2[nH]nc(N)c2C#N)ccc1O` : 12	1%	?	-37%[inhibitor]	-2.4%	-81*	5%
Profile of `CCOc1ccc(Oc2ccc(-c3nnc(-c4ccccc4)o3)cc2[N+](=O)[O-])cc1` : 14	22%	-0.5	-2%	-0.2%	-4	7%

Additional results
SMILES | TRPV1 PAM | Sfp inh | Menin-MLL FL inh | gsp agonist | ClpP mod | CtBP-E1A inh | gsp antagonist
CC(C)(C)NC(=O)[C@H]1CC[C@H]2[C@@H]3CC[C@H]4NC(=O)C=C[C@]4(C)[C@H]3CC[C@]12C | 6 | -6% | 5.9&6.2 | . | 1.4% | 5 | -14%
Cc1cccc(N=C2NC(=O)/C(=C\c3cccs3)S2)c1 | 3 | -20% | 3.0 | ? | 1.3% | -4 | -17%
COc1ccccc1C(=O)Nc1ccc2c(c1)CCCN2C(=O)c1cccs1 | 0 | 4% | -2.3 | -7%[15.4 µM] | . | -18 | -30%
CC1(c2cccc(Br)c2)NC(=O)N(CC(=O)N2CCc3ccccc32)C1=O (stereo not drawn) | 8 | . | . | -16%[15.4 µM] | -1.2% | -18 | -5%
O=C(Nc1cccc(NC(=O)c2ccc([N+](=O)[O-])o2)c1)c1ccco1 | -4 | 16% | -5.2 | -27% | . | -1 | -25%
O=C(NCc1ccccn1)Nc1cc(Cl)ccc1Cl | -5 | -23% | . | -13% | 1.2% | 0 | 7%
c1ccc2c(c1)Cc1ccccc1O2 | 4 | . | . | . | 0.3% | -12 | 5%
COc1ccc(C(=O)C2CCCN(C/C=C/c3ccccc3OC)C2)c(OC)c1 (stereo not drawn) | -4 | -3% | -3.3 | 0% | . | -2 | -4%
CC(=O)c1ccc(NC(=O)C2C3C=CC(C3=C(c3ccccc3)c3ccccc3)C2C(=O)O)cc1 (stereo not drawn) | 13 | 11% | 0.9 | -17% | -3.2% | . | 1%
COc1ccc(C(CC(=O)O)NC(=O)Nc2ccccc2)cc1OC (stereo not drawn) | ? | 15% | 0.5 | 9%[15.4 µM] | . | 4 | 4%
CCOC(=O)C1=C(N)OC2=C(C(=O)CC(C)(C)C2)C1c1cc(CSc2nnnn2C)cs1 (stereo not drawn) | 4 | 17% | -1.3 | 7%[15.4 µM] | ? | 1 | -8%
C[C@H](NC(=O)c1nc[nH]c1C(=O)OCc1ccccc1)c1ccccc1 | 1 | . | . | -11% | -2.6% | -5 | 2%
CCCCCCC(C)n1[nH]c(=O)cc1N (stereo not drawn) | -8 | 10% | -0.5 | -9%[15.4 µM] | . | -5 | 10%
O=C(CSc1nc2ccccc2o1)N1N=C(c2cccs2)CC1c1ccc(F)cc1 (stereo not drawn) | -5 | -11% | . | -4% | 32µM* | 8 | -11%
CC(=O)Nc1ccc(NC(=O)C2CCC(CNS(=O)(=O)c3cccc4nsnc34)CC2)cc1 (stereo not drawn) | 11 | -26% | -1.6 | -60%[inhibitor] | -0.5% | . | 11%
COc1ccccc1CNC(=O)c1ccccc1C(=O)NC(C)(C)C(=O)NCc1ccccc1OC | 3 | 11% | 5.4 | ? | 3.1% | -12 | -2%
Cc1cc(C)n2nc(S(=O)(=O)N(CC(C)C)CC(C)C)nc2n1 | -17 | 17% | 0.1 | -33% | 0.2% | -11 | 10%
CCCCN(CCCC)CC(O)COc1ccccc1Br (stereo not drawn) | -8 | 11% | 3.5 | 3% | -1.0% | 5 | 5%
c1ccc(C2=NOC(c3nnc(-c4ccccc4)o3)C2)cc1 (stereo not drawn) | . | . | . | -4% | -0.1% | . | 4%
COc1ccc(C(=O)c2ccc([N+](=O)[O-])cc2Cl)cc1 | -9 | -17% | -1.0 | -1%[15.4 µM] | . | -28 | -7%

The last two compounds of the section before are carried over, then new ones follow:
SMILES | TRPV1 PAM | Sfp inh | Menin-MLL FL inh | gsp agonist | ClpP mod | CtBP-E1A inh | gsp antagonist
c1ccc(C2=NOC(c3nnc(-c4ccccc4)o3)C2)cc1 (stereo not drawn) | . | . | . | -4% | -0.1% | . | 4%
COc1ccc(C(=O)c2ccc([N+](=O)[O-])cc2Cl)cc1 | -9 | -17% | -1.0 | -1%[15.4 µM] | . | -28 | -7%
Cc1[nH]c2ccc(F)cc2c1CCN(Cc1cccnc1)C(=S)Nc1ccc(F)cc1 | 7 | -9% | 6.7 | -13% | -0.4% | 2 | ?
CCOC(=O)[C@H]1[C@H]2COc3ccc(OC)cc3[C@@H]2N2C(=O)CN(Cc3ccco3)C(=O)[C@@]12C | -12 | . | . | 8% | 0.4% | -1 | -3%
CC(C)Oc1ccc(CNC(=O)Cn2ccc3cc(S(=O)(=O)N4CCCC4)ccc32)cc1 | 1 | 7% | -0.9 | -12% | -1.2% | 3 | 2%
COc1ccc(Br)cc1C(=O)NC(=S)Nc1ccc(CN2CCOCC2)cc1 | 1 | ? | . | -24% | -2.7% | ? | -5%
COCCNC(=O)C(c1cccnc1)N(Cc1ccccc1)C(=O)Cn1nnc2ccccc21 (stereo not drawn) | 2 | 8% | -8.0 | -4% | 1.4% | . | 6%
N#Cc1cnc(=S)n(-c2cc(C(F)(F)F)cc(C(F)(F)F)c2)c1N | . | . | . | 24% | -1.9% | 0 | .
CC1CCC(NC(=O)CN2CCC(n3nnc4cc(F)ccc43)CC2)CC1 (stereo not drawn) | -3 | 6% | -0.3 | ? | -4.6% | -1 | 3%
COC(=O)C1=C(C)NC(C)=C(C(=O)OC)C1c1ccc(-c2cccc(Cl)c2Cl)o1 | -9 | ? | 0.1 | ? | 25µM* | 20 | 1%
O=C(Cc1ccccc1)NCC(=O)OCc1ccc([N+](=O)[O-])cc1 | -12 | -1% | 1.0 | -29% | -3.7% | 1 | 8%
N#Cc1cn(-c2ccccc2)nc1-c1cc2ccccc2oc1=O | 4 | 8% | 3.3 | -8% | 32µM* | 2 | 10%
NC(=O)NC(=O)COC(=O)CC12CC3CC(CC(C3)C1)C2 | -8 | 26% | 0.1 | -11%[15.4 µM] | . | -5 | 7%
CCOC(=O)COc1ccc2c(=O)cc(-c3ccccc3)oc2c1 | -23 | 7% | 3.5 | -8% | ? | 2 | -26%
O=C(OCC(=O)N1CCCCC1)c1c[nH]c2ccccc12 | -1 | . | . | 15% | -2.3% | -10 | 4%
CCC(=O)N1CCc2cc(Br)cc(S(=O)(=O)CC(=O)OC)c21 | -6 | 5% | 2.2 | -84%[inhibitor] | -0.8% | -8 | 5%[15.4 µM]

CtBP-E1A inh, hit marks shown above
SMILES	Sfp inh	Menin-MLL FL inh	gsp agonist	CtBP-E1A inh	gsp antagonist
CCOc1cc(/C=C(\C#N)c2[nH]nc(N)c2C#N)ccc1O	1%	?	-37%[inhibitor]	-81*	5%

This is a random part of the collection; any-hit rate near 5.3%.
